Bioassay records as filed in PubChem.
miR-21 FLuc: miR-21 reporter, rising signal. Potency, µM (titrated, usually from 38.3 µM), for the others: at the top dose reporter change, positive = more light. HeLa miR-21 FLuc reporter, luciferase, 48 h. 340,000 tested, under 10 active. AID 2288; active = well fitted rising curve with a large enough effect; inconclusive = small, poorly fitted or top-dose-only effect; inactive = no such curve, though single readings can be large or run the other way;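 note: % of control where 0% means no effect; miR-21 action dims this reporter so a rising signal means less miR-21 action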
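HeLa cells stably expressing CMV-driven firefly luciferase with a downstream miR-21 binding sequence, endogenously expressing miR-21, were treated with titrations (up to about 40uM final) for 48 hours at 37 degree Celsius. Luciferase luminescence was read after lysis.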
Starred values were filed as active, the others as inactive; ? = inconclusive. The list is partial. The share of hits here may be higher or lower than overall.

SMILES	miR-21 FLuc
Cc1ccc(-c2cn3c(n2)sc2cc(C(=O)N4CCCCC4)ccc23)cc1	2%
O=C(NCCCN1CCN(c2ccccc2F)CC1)c1sc2ncccc2c1-n1cccc1	9%
Cc1cc(C)c(NC(=O)Cn2c(SCC(=O)NCc3ccccc3)nc3ccccc32)c(C)c1	2%
Cc1c(Cl)cccc1NC(=O)Cn1c(=O)n(Cc2nc(-c3ccccc3)no2)c(=O)c2cc3c(cc21)OCO3	0%
O=C(Nc1nc2c(F)cc(F)cc2s1)c1ccc2c(c1)OCCO2	-63%
Cc1ccc(NC(=O)CN2C(=O)CC(c3ccc(F)cc3)=Nc3ccccc32)cc1F	-5%
COc1ccc(-c2cc(C)no2)cc1S(=O)(=O)NC(C)C	-1%
CC(C)c1cc(-c2nc(-c3cccc(Cl)c3)no2)n[nH]1	-39%
CCOc1ccc(NC(=O)C(=O)NCc2ccco2)cc1	-23%
O=C(C1CCC1)N1CCc2cc(S(=O)(=O)NCc3ccc(F)cc3)ccc21	-5%
O=C(Nc1cccc(C(F)(F)F)c1)C1CCN(S(=O)(=O)c2cccs2)CC1	28%
COc1ccc(S(=O)(=O)NCC(c2ccco2)N2CCN(c3ccccc3F)CC2)cc1OC (stereo not drawn)	2%
COc1ccc(NC(=O)C(C)n2nnc3sc(-c4ccccc4)cc3c2=O)cc1Cl (stereo not drawn)	-13%
COc1ccccc1N1CCN(S(=O)(=O)c2c(C)sc3ncn(CC(=O)Nc4cccc(Cl)c4)c(=O)c23)CC1	26%
COc1ccccc1/C=C/c1nc(C#N)c(N2CCN(c3ccccc3)CC2)o1	1%
COc1ccc(OC)c(CCNC(=O)CS(=O)(=O)Cc2nc(-c3cccc(Cl)c3)oc2C)c1	-2%
O=C(Cn1cc(S(=O)(=O)Cc2ccccc2F)c2ccccc21)NCc1ccccc1	-7%
Cc1nn(CCCC(=O)NCCc2ccc(Cl)cc2)c(=O)c2c1sc1ccccc12	-62%
CCOc1ccc(NC(=O)Cn2cc(C(=O)c3ccc(C)c(C)c3)c(=O)c3cc(OC)c(OC)cc32)cc1	5%
COCCCNC(=O)CSc1nc2c(sc3ccccc32)c(=O)n1CCCC(=O)NCCOC	-3%
Cc1cccc(CCNC(=O)C2CCC(CNS(=O)(=O)c3ccccc3)CC2)c1 (stereo not drawn)	-2%
CC1CCc2nn(CC(=O)Nc3cccc(C(F)(F)F)c3)c(=O)cc2C1 (stereo not drawn)	-3%
COc1ccc(C(=O)N2CCCCC2CCN2CCOCC2)cc1 (stereo not drawn)	9%
Cc1ccc(NC(=O)c2c(C)oc3ncn(CC(C)C)c(=O)c23)nc1	-5%
Cc1ccccc1CNC(=O)c1ccc(NC(=O)c2nsc3ccccc23)cc1	-36%
COc1cccc2cc(-c3nc(-c4ccc(C)cc4)c(C)s3)c(=O)oc12	-8%
Cc1cc(=O)n2nc(N(C)CC(=O)NCc3ccccc3C)sc2n1	2%
Fc1ccccc1-n1ncc2c1ncn1nc(-c3ccccc3Cl)nc21	-70%
Cc1ccc(CNc2ncnc3c2nc2n3CCCC2)cc1	-4%
COc1cc(CN(C(=O)COc2ccc(C)c(C)c2)c2ccccn2)cc(OC)c1OC	8%

Three of the entries above in order of the miR-21 FLuc value, low to high:
SMILES	miR-21 FLuc
Cc1ccccc1CNC(=O)c1ccc(NC(=O)c2nsc3ccccc23)cc1	-36%
Cc1cc(=O)n2nc(N(C)CC(=O)NCc3ccccc3C)sc2n1	2%
COc1ccc(C(=O)N2CCCCC2CCN2CCOCC2)cc1 (stereo not drawn)	9%

(more compounds)
SMILES	miR-21 FLuc
Cc1cc(C)cc(NC(=O)CCc2c(C)nc3c4cccnc4nn3c2C)c1	2%
O=C(CCS(=O)(=O)c1cc2c(cc1Cl)NC(=O)CO2)NCc1ccccc1Cl	0%
COc1ccc(C)cc1NC(=O)N1CCCn2nc(C)cc21	4%
Cc1ccccc1Cn1c(CN2CCN(c3cc(Cl)ccc3C)CC2)nc2c1c(=O)[nH]c(=O)n2C	4%
Cc1sc2c(c1C)c(=O)n(Cc1ccccc1)c(=O)n2CC(=O)N(C)c1ccccc1	-3%
CC(=O)Nc1ccc(S(=O)(=O)NCCc2cn3ccsc3n2)cc1	-6%
COc1cccc(Cn2c(CNS(=O)(=O)c3ccc4c(c3)CCCC4)nc3cccnc32)c1	3%
COc1cc(NC(=O)CCCc2nnc3n(CC(C)C)c(=O)c4sccc4n23)cc(OC)c1	5%
COc1cc(CN2CCc3nc(N4CCN(c5ccccc5F)CC4)ncc3C2)ccc1OC(C)C	-6%
CCOC(=O)c1c(Oc2ccc(C(=O)OC)cc2)nnc(-c2ccccc2)c1-c1ccccc1	22%
Cc1ccc(S(=O)(=O)c2cn(CC(=O)Nc3ccc(C)c(Cl)c3)c3ccc(C)cc3c2=O)cc1	2%
CCN(C(=O)C1CCC(CNS(=O)(=O)c2cccc3nsnc23)CC1)c1ccccc1 (stereo not drawn)	21%
COc1ccc(C)cc1NC(=O)c1ccc2c(c1)CCN2S(=O)(=O)c1ccc(Cl)cc1	7%
COc1cccc(-c2ccc(-c3noc(-c4ccccc4Br)n3)c(OC)n2)c1	-4%
CCCN1CCN(CCCNC(=O)Cn2nc(C)n3c(cc4c(OC)cccc43)c2=O)CC1	-3%
CCOc1ccc(NS(=O)(=O)c2cc3c(cc2Cl)NC(=O)CO3)cc1	-3%
COc1cccc(CN2C(=O)C3(SCC(=O)N3c3cc(C)cc(C)c3)c3ccccc32)c1 (stereo not drawn)	26%
CSc1ccc(CNC(=O)C2CCN(c3nnc(-n4cccc4CNc4ccc(C)cc4)s3)CC2)cc1	16%
Cc1ccc(-c2cc(N)n(Cc3cccc(Cl)c3)n2)cc1	10%
CCCCCCc1cc2cc(-c3cn4c(n3)sc3cc(OC)ccc34)c(=O)oc2cc1O	-7%
CC(=O)Nc1ccc(Nc2nc3ccc(Cl)cc3n3cnnc23)cc1	-9%
COc1ccc(OC)c(CCNC(=O)c2cc3cccc4c3n2CC(C)S4)c1 (stereo not drawn)	23%
Cc1ccc(-c2nn(C)c(=O)c3ccccc23)cc1S(=O)(=O)NCCCN(C)C	-2%
Cc1ccc(N2CCN(C(=O)c3cc4cc5ccc(C)cc5nc4s3)CC2C)cc1 (stereo not drawn)	-2%
CC(C)C1=CC2=CCC3C(C)(C(=O)O)CCCC3(C)C2CC1 (stereo not drawn) (tested in a mixture with another compound)	12%
CC(C)NS(=O)(=O)c1ccc(OCC(=O)N2CCN(c3cccc(Cl)c3)CC2)cc1	?
Cc1ccc(C)c(CN2C(=O)c3ccccc3S(=O)c3ccc(C(=O)N(C)Cc4ccccc4)cc32)c1 (stereo not drawn)	17%
COc1ccc(-c2ccc(NS(=O)(=O)c3ccc(NC(C)=O)cc3)cc2)nn1	-15%
Cc1ccc(S(=O)(=O)c2nnn3c2nc(N2CCN(c4cccc(C)c4C)CC2)c2ccccc23)cc1C	-3%
Cc1ccc(C)c(N2CCN(c3nc4c(S(=O)(=O)c5ccccc5)nnn4c4ccc(Cl)cc34)CC2)c1	0%
CC(=O)c1ccc(NC(=O)C(Cc2ccccc2)NS(=O)(=O)c2ccc3c(c2)CCC(=O)N3)cc1 (stereo not drawn)	3%
O=C(/C=C/c1ccc([N+](=O)[O-])cc1)/C=C/c1ccco1	?
COc1ccccc1C(=O)Nc1onc2c1CCCC2	-4%
Cc1cccc(NC(=O)CCc2c(C)nc3c(c(C)nn3C(C)(C)C)c2C)c1C	?
CCc1ccc(-n2nc(CO)c(C(=O)NCc3ccccc3Cl)n2)cc1	-7%
Cc1ccc(-n2nc3cc(C)c(NC(=O)c4ccc(-c5ccccc5)o4)cc3n2)cc1	-24%
Cc1nc(-c2ccc(Cl)cc2)sc1CCNC(=O)c1ccco1	1%
O=c1n(Cc2cccc(F)c2)c2ccccc2c2nc(-c3ccccc3)nn12	-1%
CCCCn1c(CNC(=O)C23CC4CC(CC(C4)C2)C3)nnc1SCC(=O)Nc1ccc(C)cc1	15%
CCc1ccc(NC(=O)Cn2nc3c4ccccc4n(Cc4ccccc4)cc-3c2=O)cc1	-4%

The closing 7 entries of the section above are carried over, then new ones follow.
SMILES	miR-21 FLuc
Cc1cccc(NC(=O)CCc2c(C)nc3c(c(C)nn3C(C)(C)C)c2C)c1C	?
CCc1ccc(-n2nc(CO)c(C(=O)NCc3ccccc3Cl)n2)cc1	-7%
Cc1ccc(-n2nc3cc(C)c(NC(=O)c4ccc(-c5ccccc5)o4)cc3n2)cc1	-24%
Cc1nc(-c2ccc(Cl)cc2)sc1CCNC(=O)c1ccco1	1%
O=c1n(Cc2cccc(F)c2)c2ccccc2c2nc(-c3ccccc3)nn12	-1%
CCCCn1c(CNC(=O)C23CC4CC(CC(C4)C2)C3)nnc1SCC(=O)Nc1ccc(C)cc1	15%
CCc1ccc(NC(=O)Cn2nc3c4ccccc4n(Cc4ccccc4)cc-3c2=O)cc1	-4%
CSc1ncc2c(n1)-c1ccccc1N(Cc1ccc(Cl)cc1)S2(=O)=O	0%
Cc1ccc(C)c(NC(=O)Cn2c(=O)n(Cc3ccccc3)c(=O)c3oc4ccccc4c32)c1	-1%
O=C(CN1CCCN(Cc2cccc(Cl)c2)S1(=O)=O)Nc1ccc2c(c1)OCCO2	0%
CC(C)c1ccc(OCc2cc(=O)n3c4c(sc3n2)CCCC4)cc1	3%
CCC(CC)C(=O)Nc1nnc2n1CCS2	-2%
Cc1cc(C)cc(NC(=O)CCS(=O)(=O)c2ccc3nc(C)sc3c2)c1	5%
Cc1cc(=O)n(Cc2ccc(Cl)cc2)c2c1c(C)nn2-c1ccccc1	-4%
COc1ccc(Br)cc1CNC(=O)CSc1cc(=O)n(C)c2ccccc12	-3%
Cc1ccc(NC(=O)CN2C=NS(=O)(=O)c3ccccc32)c(C)c1	1%
CCN1CCN(C(c2ccc(C)cc2)c2sc3nc(-c4ccco4)nn3c2O)CC1 (stereo not drawn)	-4%
CCOC(=O)c1c(C)oc2nc(C)nc(NCc3ccc(F)cc3)c12	-9%
Cc1ccc(Oc2c(C(F)(F)F)oc3c(CN4CCCCC4)c(O)ccc3c2=O)cc1	-5%
Cc1c(Cl)cccc1-n1c(SCC(=O)NCc2ccccc2)nc2n[nH]c(C)c2c1=N	6%
Cc1ccc(CNC(=O)Cn2ccn(-c3ccc(F)cc3)c(=O)c2=O)cc1	0%
CCCCN1C(=O)c2[nH]nc(-c3ccccc3O)c2C1c1ccc(OCc2ccccc2)cc1 (stereo not drawn)	?
CCc1cccc(C)c1NC(=O)CN1CCCN(Cc2ccc(C)cc2)S1(=O)=O	0%
CN(Cc1ccccc1)C(=O)CCS(=O)(=O)c1cc(Br)cc2c1N(C(=O)C1CC1)CC2	-5%
COc1ccccc1-c1noc(-c2ccc(N3CCOCC3)c([N+](=O)[O-])c2)n1	-5%
Cc1cccc(N2CCN(C(=O)CS(=O)(=O)c3cccc4nsnc34)CC2C)c1 (stereo not drawn)	2%
Cc1ccc(Cn2cnc3nc4c(cc3c2=O)CC(C)CC4)cc1 (stereo not drawn)	-91%

Three structures out of the list, arranged by count of non-hydrogen atoms, highest first:
SMILES	miR-21 FLuc
CCCCN1C(=O)c2[nH]nc(-c3ccccc3O)c2C1c1ccc(OCc2ccccc2)cc1 (stereo not drawn)	?
CN(Cc1ccccc1)C(=O)CCS(=O)(=O)c1cc(Br)cc2c1N(C(=O)C1CC1)CC2	-5%
COc1ccccc1-c1noc(-c2ccc(N3CCOCC3)c([N+](=O)[O-])c2)n1	-5%

Further compounds follow:
SMILES	miR-21 FLuc
Cc1nn(C(=O)COc2ccc(Cl)cc2)c(C)c1Sc1ccccc1	-2%
COc1cc(OC)cc(-c2nc(-c3cccc(C)c3)no2)c1	-53%
CCOC(=O)c1c(NC(=O)c2cc(Cl)ccc2Cl)sc2c1CCCC2	-2%
O=S(=O)(NCCc1csc(-c2ccc(F)cc2)n1)c1ccc(F)cc1F	25%
Cc1ccc2nc(N3CCC(C(=O)N4CCN(c5cccc(C)c5C)CC4)CC3)[nH]c2c1	19%
CCOC(=O)c1c(C)c(C(=O)NCc2ccc(Cl)cc2)c(C)n1CC	-3%
Cc1ccc(C2CCN(C(=O)c3cnn(-c4ccc(C)cc4)c3C3CCN(C(=O)OC(C)(C)C)CC3)C2)cc1 (stereo not drawn)	2%
Cc1cccc(C(=O)N2CCc3cc(CNC(=O)Cc4ccc(F)cc4)ccc32)c1	?
Cc1ccc(NC(=O)N(Cc2c[nH]c3ccccc23)C2CCCCCC2)cc1C	2%
CC(C)CCNC(=O)Nc1ccc2c(c1)N(C)C(=O)c1ccccc1S2	-5%
O=C(Nc1ccccc1C(=O)OCc1cc(=O)n2c3c(sc2n1)CCCC3)c1ccc(F)cc1	-6%
O=C(c1cccs1)N1CCCc2cc(NS(=O)(=O)c3ccc(Cl)cc3)ccc21	8%
CCN(C(=O)Cn1nc(Cc2ccncc2)c2ccccc2c1=O)c1cccc(C(F)(F)F)c1	-14%
CN(C)c1ccc(NC(=O)CSc2nc3ccsc3c(=O)n2CCCCCC(=O)O)cc1	0%
Cc1cccc(N2CCN(c3ncnc4onc(-c5ccc(F)cc5)c34)CC2C)c1 (stereo not drawn)	23%
Cc1ccc2onc(CNC(=O)NCc3cccc(Cl)c3)c2c1	-2%
COc1ccc(-n2cc(C(=O)NCCc3ccc(C)cc3)c3ccccc3c2=O)cc1	12%
CCOC(=O)c1ccc(NC(=O)Cn2nnc(-c3ccc(C(F)(F)F)cc3)n2)cc1	-1%
COc1ccccc1-c1noc(-c2ccc(NCc3ccccc3)c([N+](=O)[O-])c2)n1	-17%
CC1CCN(CCNC(=O)c2ccc(Cn3c(SCc4ccccc4)nc4cccnc43)cc2)CC1	-23%
COc1ccc(Cl)cc1NC(=O)c1ccc2nc(Cc3ccccc3)oc2c1	-5%
COc1cc(NC(=O)CSc2cc(=O)n(C)c3ccccc23)cc(OC)c1OC	0%
